D2 PAM: positive allosteric modulators of human D2 dopamine receptor. P14416. DiscoveRx D2 beta-arrestin cells, luminescence, 90 min; 100% = 57 uM dopamine signal. potentiation, % (no concentration beside the values). 360,000 compounds, 0.23% hits; active = potentiation of 50% or more; inconclusive = 30% to 50%; inactive = 30% or less;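 also: compound concentration not given in the record; tested on top of an EC20 dose of dopamine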
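D2 cells co-treated with compound plus 50 nM dopamine (EC20) for 90 min at 37 deg C to detect potentiation. Beta-arrestin recruitment was read as enzyme-fragment luminescence after 1 h at ambient temperature. Full response was set by 57 uM dopamine.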
CtBP-E1A inh: inhibitors of CtBP/E1A interaction. AlphaScreen GST-E1A/His-CtBP binding, 1536-well; hits give low values; control for the full effect not named in the record. AID 651724. 340,000 compounds, 0.49% hits. activity change, % (test concentration not listed); in the data active means activity change below about -65%; inconclusive means about -30% to -65%; inactive means above about -30%; also: % is scaled to controls: 0 for no effect and ±100 for the full control effect
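In 5 uL wells, 23 nL compound meets equimolar GST-E1A and His-CtBP (5X stock 125 nM each) for 2 h, 37 °C. Beads (5X, 50 ug/mL) then 1 h, 37 °C, dark.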
TRPML1 agonist: activates the human TRPML1 channel; Q9GZU1; TRPML1-expressing cells, Ca2+ dye fluorescence, FDSS; host cell line not named in the record; reference of the full effect not given here; activation, % (no concentration beside the values); 410,000 compounds, 0.12% hits; in the data active = activation above about 50%; inconclusive = about 30% to 50%; inactive = below about 30%; also: 0% is about no effect; the text of the record puts the active cut at 80%
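Cells: TRPML1-DL, 1X Tet inducer, ~16 h at 37 degrees C/5% CO2. Dye: ABD Ca8 no-wash + quencher, 45-90 min RT. Read: 10 s baseline, compound add, 110 s agonist phase; 54-4 EC80 (4uM final), 110 s antagonist phase.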
TRPML1 blocker: inhibitors of human TRPML1 channel. Q9GZU1. TRPML1-inducible cells, Ca2+ dye fluorescence, FDSS; hits give low values; inhibition of EC80 agonist-evoked calcium signal. activity change, negative = inhibition, % (test concentration not listed). 390,000 compounds, 0.02% hits. AID 624415; in the data active means activity change below about -50%; inconclusive means about -30% to -50%; inactive means above about -30%;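 also: stimulus is agonist 54-4 at its EC80 concentration; % is scaled to controls: 0 for no effect and ±100 for the full control effect; compound concentration not given in the record; the text of the record puts the active cut at -80%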
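Tet-induced TRPML1-DL cells loaded with Ca8 no-wash calcium dye were read kinetically on FDSS. Compound addition was followed by EC80 agonist 54-4 (4 uM final); inhibition was read over 110 s.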
TRPV1 PAM: enhances activation of the human vanilloid receptor TRPV1; Q8NER1; TRPV1-expressing cells, Fluo-8 calcium influx, capsaicin EC20 potentiation; host cell line not named in the record; control for the full effect not named in the record; potentiation, % at 8.33 µM; 320,000 compounds, 0.02% hits; AID 540277; active means potentiation above 80%; inconclusive means 30% to 80%; inactive means below 30%; also: 0% is about no effect
Target sequence (Q8NER1 whole entry, looked up): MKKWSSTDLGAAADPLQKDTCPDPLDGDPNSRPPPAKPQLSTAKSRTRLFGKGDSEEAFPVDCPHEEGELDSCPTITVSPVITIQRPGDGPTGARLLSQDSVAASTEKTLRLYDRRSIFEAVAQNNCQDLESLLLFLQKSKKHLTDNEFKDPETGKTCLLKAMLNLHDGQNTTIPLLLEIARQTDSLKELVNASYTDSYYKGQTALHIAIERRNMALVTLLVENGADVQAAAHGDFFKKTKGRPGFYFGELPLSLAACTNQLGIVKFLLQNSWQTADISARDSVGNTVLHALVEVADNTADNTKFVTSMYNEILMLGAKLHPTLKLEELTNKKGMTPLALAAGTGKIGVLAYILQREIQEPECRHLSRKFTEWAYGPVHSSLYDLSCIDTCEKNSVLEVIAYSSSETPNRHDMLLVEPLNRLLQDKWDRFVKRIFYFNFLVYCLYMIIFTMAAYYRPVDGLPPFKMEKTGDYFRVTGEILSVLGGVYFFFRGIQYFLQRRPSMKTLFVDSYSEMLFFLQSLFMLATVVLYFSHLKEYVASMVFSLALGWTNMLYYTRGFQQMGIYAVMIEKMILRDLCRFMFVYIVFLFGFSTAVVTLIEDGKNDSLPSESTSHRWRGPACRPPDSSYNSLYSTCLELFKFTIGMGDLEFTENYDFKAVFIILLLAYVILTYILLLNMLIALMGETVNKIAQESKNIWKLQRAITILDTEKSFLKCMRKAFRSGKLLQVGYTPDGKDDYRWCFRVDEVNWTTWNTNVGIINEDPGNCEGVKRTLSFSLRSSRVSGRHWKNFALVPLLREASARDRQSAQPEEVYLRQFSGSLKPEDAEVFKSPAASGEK
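Cells expressing TRPV1 were dye-loaded with Fluo-8 and read kinetically: 10 s baseline, 3 min after compound (agonist portion), then 2 min after EC20 capsaicin (allosteric enhancer portion). Calcium-bound dye fluorescence at 480/520 nm.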
Six1-Eya2 inh: blocks human Six1 binding to Eya2 | Q15475+O00167 | AlphaScreen GST-Six1/His-Eya2 binding, biochemical; hits give low values; control for the full effect not named in the record | activity change, % (test concentration not listed) | 360,000 compounds, 0.56% hits | AID 651725; in the data active = activity change below about -65%; inconclusive = about -30% to -65%; inactive = above about -30%; also: % is scaled to controls: 0 for no effect and ±100 for the full control effect
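AlphaScreen luminescence read after one hour at 37 °C in darkness. Pin-transferred compounds met GST-Six1 and His-Eya2 protein (5X stock 250 nM/500 nM) plus glutathione donor and Ni-chelate acceptor beads (5X, 50 ug/mL).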
Numbers without * were called inactive; ? = inconclusive; · = not tested or not shown; & = joins results of further samples.

SMILES	D2 PAM	CtBP-E1A inh	TRPML1 agonist	TRPML1 blocker	TRPV1 PAM	Six1-Eya2 inh
CCn1c(SCC(=O)c2ccc3ccccc3c2)nnc1-c1cccs1	-6	-13	1.6	15	8	-2
CN(C)C(=O)COC(=O)[C@H](Cc1ccccc1)NC(=O)c1ccco1	1	0	-0.2	5	2	3
CCOc1ccc(C(=O)Nc2c3c(nn2-c2cccc(C)c2C)CS(=O)C3)cc1 (centres undefined)	-6	4	-0.4	3	?	-5
COc1cc2c(cc1OC)-c1nnc(-c3cccs3)n1C1(CCCC1)C2	1	8	0.0	-13	27	9
O=C(Nc1nc(-c2ccc(-c3ccccc3)cc2)cs1)C1CCCO1 (centres undefined)	0	4	0.3	13	9	-5
COc1ccccc1OC(=O)c1cc2ccccc2oc1=O	0	6	-0.5	7	7	3
C[C@@H]1CN([C@@H](C)CO)C(=O)c2cc(NC(=O)Nc3ccc4c(c3)OCO4)ccc2O[C@H]1CN(C)S(=O)(=O)c1ccc(F)cc1	-21	-16	0.7	-16	·	-29
CCCCn1c(N)c(N(CCOC)C(=O)CN(C)S(=O)(=O)c2ccc(Cl)cc2)c(=O)[nH]c1=O	-11	3	-0.4	-1	-18	-2
CCOC(=O)C1(CCOc2ccccc2)CCN(C(=O)c2cncs2)CC1	-2	0	0.0	18	-4	2
c1ccc(CN(Cc2ccco2)C(c2ccncc2)c2nnnn2C2CCCC2)cc1 (centres undefined)	-16	3	0.2	-9	9	-1
COc1cc(O)cc2cc3c(c(O)c12)C(=O)CC(C)(O)O3 (centres undefined)	20	-22	·	·	?	-21
Cn1c(SCC(=O)Nc2ccc3[nH]c(=O)[nH]c3c2)nnc1-c1ccccc1	-12	-1	-0.5	-10	-4	0
N#Cc1ccccc1NC(=O)COC(=O)CN1C(=O)C2CCCCC2C1=O (centres undefined)	-4	-2	-0.1	?	·	2
O=[N+]([O-])c1ccccc1S(=O)(=O)NC1CCCCCCC1	0	-29	0.1	0	-13	-6
CCOC(=O)c1c(C)[nH]c(C)c1S(=O)(=O)N(C)CC(=O)Nc1cccc(F)c1	-3	·	0.3	-5	26	-11
CCNC(=S)NNC(=O)c1ccc(=O)n(Cc2ccccc2)c1	-8	·	0.1	1	-2	4
O=c1cc(-c2ccccc2)[nH]c2cc(F)ccc12	-11	1	-0.3	17	5	4
O=C1C=C(c2ccc(C(=O)O)cc2)C[C@@H](c2ccc3c(c2)OCO3)C1	-5	-16	-0.6	-27	-1	-13
COCCNC(=S)N1CCN(C(=O)C(=O)Nc2ccc(C(=O)OC)cc2)CC1	-6	-1	1.2	-18	-16	5
COc1ccc(N2CCN(C(=O)CNS(=O)(=O)c3ccc(C)cc3)CC2)cc1	0	-3	0.0	36	7	2
NC(=O)C1(N2CCCCC2)CCN(C(=O)c2cccs2)CC1	-1	-1	-0.5	0	15	-3
CC(C)CN1CCC(=O)N([C@H](CN=[N+]=[N-])Cc2ccccc2)CC1	-4	3	1.4&1.0	-6	5	2
Cc1ccc2c3c([nH]c2c1C)-c1nonc1CC3	-7	3	0.8	37	16	-1
O=C(c1ccc(S(=O)(=O)Nc2ccccc2F)cc1)N1CCN(c2ccccn2)CC1	-9	-1	-0.5	-5	·	-2
COc1ccc(C(=O)n2c(SC)nc3cc4c(cc32)OCCO4)cc1	-7	-4	1.9	-2	-18	4

Entries listed so far that contain a thiophene ring, fused or not:
SMILES	D2 PAM	CtBP-E1A inh	TRPML1 agonist	TRPML1 blocker	TRPV1 PAM	Six1-Eya2 inh
CCn1c(SCC(=O)c2ccc3ccccc3c2)nnc1-c1cccs1	-6	-13	1.6	15	8	-2
COc1cc2c(cc1OC)-c1nnc(-c3cccs3)n1C1(CCCC1)C2	1	8	0.0	-13	27	9
NC(=O)C1(N2CCCCC2)CCN(C(=O)c2cccs2)CC1	-1	-1	-0.5	0	15	-3

The list continues:
SMILES	D2 PAM	CtBP-E1A inh	TRPML1 agonist	TRPML1 blocker	TRPV1 PAM	Six1-Eya2 inh
O=C1N(Cc2cccnc2)C[C@@H]2C[C@@H](c3ccc4nsnc4c3)N3CCC[C@@]123	-8	1	-0.7	-12	7	9
COc1ccc([C@H]2CC(=O)C=C(c3ccc4c(c3)sc3ccccc34)C2)cc1	-13	3	0.4	5	1	1
COCCn1c(SCC(=O)Nc2ccc(N3CCOCC3)cc2)nc2ccccc21	-5	-8	-0.4	32	-7	0
COc1ccccc1OCC(=O)Nc1c2c(nn1-c1ccccc1)CS(=O)(=O)C2	1	-2	0.3	13	-8	3
COc1ccnc(CSC(N)=Nc2ccccc2OC)c1	-8	-29	0.1	40	16	-28
CCCOC(=S)Nc1ccccc1	-3	10	-0.9	-16	6	3
O=C1CC[C@@H]2C[C@@]3(C[C@@H]4CCN1[C@H]24)Nc1cc([N+](=O)[O-])ccc1NC3=NCc1ccccc1	-13	-30	2.3&4.0	22	·	-10
Cc1ccc(C(O)(CNCc2ccccc2)c2ccccc2)cc1 (centres undefined)	-14	11	0.9	37	-9	9
COc1cccc(Oc2cn[nH]c2-c2ccc(O)cc2O)c1	-3	5	-0.7	-5	4	0
Cc1csc(NC(=O)CNC(=O)OCc2ccccc2)n1	-5	2	-0.5	5	-1	0
C=CCOc1cccc(/C=N/NC(=O)C(=O)NCc2ccco2)c1	-2	14	-0.2	4	23	9
Cc1ccc(CNc2ccc([N+](=O)[O-])cc2C(N)=O)cc1	-26	0	0.5	21	26	-7
O=c1c2c(C(F)(F)F)cc(C(F)(F)F)nc2[nH]n1-c1ccccc1	-27	1	1.3	-2	6	-6
Cc1ccc(CNS(=O)(=O)c2cc(F)ccc2CN2C(=O)c3cccnc3C2=O)o1	9	20	-0.8	-15	14	4
Cc1ccc(S(=O)(=O)NC(C)(C)CN2CCc3ccccc3C2)cc1	-27	·	0.3	56	-9	2
COc1ccc([N+](=O)[O-])cc1NC(=O)C(C)OC(=O)C1CCCC1 (centres undefined)	-8	-8	6.0	7	1	-3
Cc1ccc(CNS(=O)(=O)c2ccc(C(C)(C)C)cc2)n1C	-5	3	-0.5	4	-16	-4
CCn1c(Cc2ccccc2)nnc1SCC(=O)Nc1nc2ccccc2s1	-6	4	0.4	12	4	2
COc1ccc(NC(=O)Cn2c3ccccc3c3nc4n(c(=O)c32)CCS4)cc1OC	-6	·	0.0	-14	?	2
O=C(NCc1ccco1)c1cnccn1	8	-1	-0.2	4	6	5
CCOC(=O)c1cc[nH]c1CC(=O)NC	7	·	-0.1	-3	4	-1
CCOC(=O)c1cc(-c2ccc(N3CCOCC3)cc2)nn1-c1ccc(F)cc1F	-27	-9	0.2	10	-7	-18
COc1ccc(CNC(=O)CCCC(=O)n2nc(C)c3ccccc32)cc1	-2	-1	-0.1	-12	-6	-2
Cc1cccc(CCNC(=O)C2CCN(S(=O)(=O)c3ccccc3)CC2)c1	-7	7	-0.4	-11	-6	14
CN(Cc1cccc(F)c1)C(=O)CSc1nnc(C2CC2)n1C1CC1	-7	-11	0.1	0	5	10
Next section.
SMILES	D2 PAM	CtBP-E1A inh	TRPML1 agonist	TRPML1 blocker	TRPV1 PAM	Six1-Eya2 inh
CCOC(=O)c1ccc(NC(=O)CSc2nc3cccnc3n2C)cc1	-1	3	-1.4	-1	26	3
CCOCCCN(C)C1CCN(C(=O)c2oc3ccccc3c2NC(=O)COc2cccc(C)c2)CC1	-32	-10	-0.7	18	5	-6
COc1ccc([N+](=O)[O-])cc1C(=O)Nc1ccc(Cc2ccncc2)cc1	-11	3	3.6	-15	-22	0
COc1ccc(NC2CCCN(C(=O)c3cc4ncccn4n3)C2)cc1 (centres undefined)	-5	13	0.5	21	-36	0
COc1cccc2c(N/N=C/c3ccc(O)c(O)c3)cc(C)nc12	0	-4	-0.2	-10	3	-1
N#Cc1ccccc1OCC(=O)NC(N)=O	-3	6	0.0	8	9	-2
OCCOCCNc1ncnc2sc(-c3ccccc3)cc12	-16	0	-1.0	-2	6	0
O=C(NCc1ccco1)c1cnn2c(C(F)F)cc(-c3ccccc3)nc12	-13	-2	0.6	7	-4	-1
O=C(Nc1ccc(F)cc1)c1ccc2snnc2c1	-7	-2	-0.1	-7	-18	0
COc1ccccc1CNC(=S)Nc1ccc(S(N)(=O)=O)cc1	1	-2	0.9	10	9	25
CC(CC(=O)Nc1ccc2c(c1)c(=O)n(C)n2Cc1cccc(C(F)(F)F)c1)C(F)(F)F (centres undefined)	-3	3	-0.4	43	·	9
CCOC(=O)C1CCCN(C(=O)Cn2ncc3c(=O)oc4ccc(C)cc4c32)C1 (centres undefined)	-8	1	-0.1	-3	·	8
Cc1ccc(-c2c(C)sc(NC(=O)C3C4CCC(O4)C3C(=O)O)c2C(=O)OC(C)C)cc1 (centres undefined)	-24	-1	0.5	5	14	-16
COc1cccc(NC(=O)Nc2cc(Cl)ccc2C)c1	-10	2	0.5	2	-3	-1
CC(C)(Cc1ccc(O)cc1)NC(=O)c1ccccc1	-2	-8	0.3	17	-6	1
COc1ccc(NC(=S)N2CCN(c3ccccn3)CC2)cc1	-2	-1	1.4	10	6	3
O=C1CC(N2CCC(c3nc4ccccc4s3)CC2)C(=O)N1 (centres undefined)	-21	1	-1.0	24	-6	3
CC1CCCC(C)N1C(=O)c1cc2ncc(CCCl)cn2n1 (centres undefined)	-5	13	-0.1	-26	-3	3
CC(=O)Nc1cnc(-c2ccc3c(c2)OCO3)cn1	-2	6	-0.3	·	·	7
CCOCCCN(C)C1CCN(C(=O)c2oc3ccccc3c2NC(=O)Cc2cccc([N+](=O)[O-])c2)CC1	-38	-14	-1.0	10	4	-1
S=C(c1ccc[nH]1)N1CCOCC1	12	-4	-0.4	2	13	-1
CCOC(=O)CN1C(c2ccccc2O)Nc2ccc(Br)cc2C1c1ccccc1 (centres undefined)	-8	0	1.0	30	-2	-9
COc1ccc(/C=N/NC(=O)c2cc[n+]([O-])cc2)cc1O	-2	?	1.1	-3	0	?
CN(Cc1cccnc1)Cc1cn[nH]c1-c1ccc(-c2ccccc2)cc1	-11	-6	-0.6	-17	8	-6
CC(C)CC(=O)Nc1nnc(-c2ccco2)s1	-10	12	-0.4	-14	?	-3
CC(=O)c1cccc(NC(=O)CCC2CCCC2)c1	-22	2	-0.8	-6	-21	9
O=C(CC(Sc1ccc(Br)cc1)C(=O)O)c1ccc(F)cc1 (centres undefined)	-8	·	1.5	12	12	-12
CCN(c1cccc(C)c1)S(=O)(=O)c1cccc2nsnc12	-23	-1	4.2	10	-5	-10
Cc1ccc(C(=O)c2cnc3ccccc3c2-c2ccccc2)cc1	-7	-3	0.9	15	18	-7
CCn1cc(C(=O)OCC(=O)N(C)C2CCS(=O)(=O)C2)c(=O)c2ccc(C)nc21 (centres undefined)	-10	-1	-0.2	14	19	7

Single records (already shown). Order of screens: D2 PAM	CtBP-E1A inh	TRPML1 agonist	TRPML1 blocker	TRPV1 PAM	Six1-Eya2 inh
Shown for Cc1ccc(C(=O)c2cnc3ccccc3c2-c2ccccc2)cc1 : -7	-3	0.9	15	18	-7
Shown for COc1ccc(NC2CCCN(C(=O)c3cc4ncccn4n3)C2)cc1 (centres undefined) : -5	13	0.5	21	-36	0
Shown for CN(Cc1cccnc1)Cc1cn[nH]c1-c1ccc(-c2ccccc2)cc1 : -11	-6	-0.6	-17	8	-6
Shown for CC1CCCC(C)N1C(=O)c1cc2ncc(CCCl)cn2n1 (centres undefined) : -5	13	-0.1	-26	-3	3

Screens as filed in PubChem.
